Six1-Eya2 inh – blocks human Six1 binding to Eya2; AlphaScreen GST-Six1/His-Eya2 binding, biochemical; hits give low values; control for the full effect not named in the record; Q15475+O00167; activity change, % (concentration not given with the values); 360,000 tested, 0.56% active; in the data active = activity change below about -65%; inconclusive = about -30% to -65%; inactive = above about -30%; note: % is set by controls: 0 for no effect and ±100 for the full control effect
Target sequence (O00167 whole entry, looked up): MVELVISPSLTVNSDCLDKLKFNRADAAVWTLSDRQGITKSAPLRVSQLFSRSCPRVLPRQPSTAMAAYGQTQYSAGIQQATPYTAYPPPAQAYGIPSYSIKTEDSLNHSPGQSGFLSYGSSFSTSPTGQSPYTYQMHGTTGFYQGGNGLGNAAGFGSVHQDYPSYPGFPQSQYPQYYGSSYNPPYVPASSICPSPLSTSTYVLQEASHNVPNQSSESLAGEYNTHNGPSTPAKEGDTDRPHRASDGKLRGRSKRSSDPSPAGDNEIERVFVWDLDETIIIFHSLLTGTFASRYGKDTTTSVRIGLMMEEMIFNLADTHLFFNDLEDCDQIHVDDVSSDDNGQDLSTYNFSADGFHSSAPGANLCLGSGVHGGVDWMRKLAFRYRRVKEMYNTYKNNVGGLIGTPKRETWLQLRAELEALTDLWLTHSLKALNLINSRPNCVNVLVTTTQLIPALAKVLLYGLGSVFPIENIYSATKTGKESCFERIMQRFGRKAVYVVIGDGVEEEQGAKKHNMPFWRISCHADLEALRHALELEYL
Target sequence (Q15475 whole entry, looked up): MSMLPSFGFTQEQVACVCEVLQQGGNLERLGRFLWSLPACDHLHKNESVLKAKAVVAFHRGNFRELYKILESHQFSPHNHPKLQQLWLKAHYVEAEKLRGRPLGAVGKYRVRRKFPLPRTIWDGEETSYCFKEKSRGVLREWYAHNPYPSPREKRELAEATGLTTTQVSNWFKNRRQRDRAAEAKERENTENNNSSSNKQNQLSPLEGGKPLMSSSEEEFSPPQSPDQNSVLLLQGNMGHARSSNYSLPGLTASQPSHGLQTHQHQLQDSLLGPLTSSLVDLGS
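AlphaScreen with GST-Six1 and His-Eya2 (5X mix: 250 nM and 500 nM), glutathione donor and nickel acceptor beads; buffer 50 mM Tris pH 8.0, 300 mM NaCl, 1 mM TCEP; 1 h at 37 C in the dark.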
TRPML1 ag – agonists of human TRPML1 channel; TRPML1-expressing cells, Ca2+ dye fluorescence, FDSS; host cell line not named in the record; reference of the full effect not given here; activation, % (no concentration beside the values); 410,000 tested, 0.12% active; in the data active = activation above about 50%; inconclusive = about 30% to 50%; inactive = below about 30%; note: 0% is about no effect; the text of the record puts the active cut at 80%
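In this qHTS format, compounds were pin-transferred onto Ca8-dye-loaded TRPML1-DL cells induced with Tet overnight, and intracellular Ca2+ fluorescence was recorded kinetically for 110 s after a 10 s baseline. A subsequent 4uM final 54-4 (EC80) addition followed by a second 110 s read served as the antagonist phase.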
PINK1 modulator – PINK1 expression modulation | AID 624263 | 410,000 tested, 0.2% active | PINK1 immunofluorescence, high-content cytometry, 24 h | Potency, µM (highest dose often 76.6 µM), for the others: at the top dose activation (PINK1 increase), actives largely listed as activators; active = well fitted activation curve with a large enough effect; inconclusive = small, poorly fitted or top-dose-only effect; inactive = flat fitted curve, though single readings scatter; cell line not stated here;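 note: potency is the fitted concentration of half-maximal effect; % of control where 0% means no effect; nearly all actives have a fitted effect of over 65% in size; a mitochondrial uncoupler was the plate control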
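Readout is PINK1 immunofluorescence, quantified alongside mitochondrial, cell and nuclear markers by laser-scanning microplate cytometry. Cells from a stable line were exposed to compound titrations (5 concentrations) for 24 hours, with CCCP controls.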
D2 potentiator – potentiates the human D2 dopamine receptor allosterically; P14416; DiscoveRx D2 beta-arrestin cells, luminescence, 90 min; 100% = 57 uM dopamine signal; potentiation, % (concentration not given with the values); 360,000 tested, 0.23% active; active = potentiation of 50% or more; inconclusive = 30% to 50%; inactive = 30% or less;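 note: compound concentration not given in the record; tested on top of an EC20 dose of dopamine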
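D2 cells co-treated with compound plus 50 nM dopamine (EC20) for 90 min at 37 deg C to detect potentiation. Beta-arrestin recruitment was read as enzyme-fragment luminescence after 1 h at ambient temperature. Full response was set by 57 uM dopamine.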
CtBP-E1A inh – CtBP/E1A binding inhibition | activity change, % (no concentration beside the values) | AlphaScreen GST-E1A/His-CtBP binding, 1536-well; hits give low values; control for the full effect not named in the record | 340,000 tested, 0.49% active; in the data active means activity change below about -65%; inconclusive means about -30% to -65%; inactive means above about -30%; note: % is set by controls: 0 for no effect and ±100 for the full control effect; compound concentration not given in the record
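Protein mix (5X: 125 nM each GST-E1A, His-CtBP) was incubated with pinned compound 2 h at 37 deg C in dark, in 50 mM Tris pH 8.0 buffer with 300 mM NaCl. Glutathione donor and nickel acceptor beads followed; AlphaScreen signal read after 1 h.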
D2 ag – human D2 receptor agonism in beta-arrestin assay; 360,000 tested, 0.084% active; activation, % (no concentration beside the values); P14416; AID 624465; DiscoveRx PathHunter D2 beta-arrestin, luminescence, 90 min; 100% = 57 uM dopamine signal; in the data active = activation above about 40%; inconclusive = about 15% to 40%; inactive = below about 15%; note: compound concentration not given in the record; the text of the record calls up to 30% inactive
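DiscoveRx PathHunter D2 beta-arrestin cells (2,100/well) attached overnight, then compound-stimulated 90 min at 37 C in HBSS/10 mM HEPES/0.1% Tween-20 buffer; beta-galactosidase complementation read by luminescence after 1 h at ambient temperature. Dopamine 57 uM final (EC100) as control.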
* hit, by the source's call; ? = inconclusive; / = not tested or not shown; [ ] = remark or other dose. Outcome played no part in choosing rows. About 1.3% of those tested had a hit in this group.

SMILES	Six1-Eya2 inh	TRPML1 ag	PINK1 modulator	D2 potentiator	CtBP-E1A inh	D2 ag
O=C(O)c1ccc(NN=Cc2cc(=O)[nH]c(=O)[nH]2)cc1	0	-0.2	1.0%	-8	-1	1.8
CCCCNS(=O)(=O)c1ccc(NC(=O)Cc2ccccc2[N+](=O)[O-])cc1	-16	-0.5	7.6%	-14	-9	-4.3
Cc1ccc(NC(=O)CN(C)C(C)C(=O)N2CC(C)CC(C)C2)cc1 (stereo unspecified)	4	0.6	0.9%	-1	10	-1.6
O=C(OCn1nnc2ccccc2c1=O)c1ccc(F)c(S(=O)(=O)N2CCOCC2)c1	-5	-0.4	0.1%	-12	-2	1.7
O=C1CN(C(=O)COC(=O)c2cccnc2Cl)c2ccccc2N1	-7	1.1	0.9%	-6	-20	-0.7
CCOC(=O)c1c(NC(=O)Cn2nc(C(F)(F)F)cc2C)sc(C)c1C	0	0.9	8.8%	-4	0	-4.9
Cc1ccc(CNC(=O)CCc2ccc(S(=O)(=O)NCC(C)C)cc2)cc1	14	0.4	2.6%	-15	-23	-2.1
CCN(CC)S(=O)(=O)c1ccc(-c2nnc(SCC(=O)Nc3nnc(C)s3)n2CC)cc1	-3	2.1	-0.4%	-4	-10	1.8
C/C(=N\NC(=O)c1ccc(CN(C)S(=O)(=O)c2ccc(C)cc2)cc1)c1ccc(OC(F)F)cc1	4	0.1	5.0%	-10	-3	-3.7
COc1ccc(C2=CC(c3ccc(Cl)cc3)n3cnnc3N2)cc1OC (stereo unspecified)	-4	10	4.7%	7	3	11
CCCCn1nc(C(=O)Nc2ccc3c(c2)OCO3)c2ccccc2c1=O	?	0.6	0.0%	-5	-26	-0.3
CC(=O)Nc1ccc(OC(=O)c2cccnc2)cc1	4	-0.4	-0.3%	16	5	-2.4
S=C(Nc1ccccc1)Nc1nccs1	6	-0.6	5.1%	-42	/	-3.2
COc1ccc(NC(=O)c2ccc(S(=O)(=O)C(F)F)cc2)c(OC)c1	4	1.6	-0.9%	7	-11	0.0
O=C(Nc1ccccc1SC(=O)c1ccccc1)c1ccccc1	-5	1.4	-0.3%	-12	-2	15
CC(C)OCCCN(C)C1CCN(S(=O)(=O)c2ccc(-c3cc(C(F)(F)F)no3)s2)CC1	-1	1.3	0.3%	-23	-1	0.8
CCOC(=O)C1(Cc2cccc(OC)c2)CCN(Cc2csc(C(C)=O)c2)CC1	-4	1.2	-0.8%	-22	/	-5.8
CC(Cc1ccccc1)C(=O)N(C)Cc1ccccc1 (stereo unspecified)	-5	-0.1	2.4%	-7	0	0.2
CCn1ncc(Br)c1C(=O)Nc1ccc(F)c([N+](=O)[O-])c1	1	-0.7	-0.8%	8	-10	-3.0
CCCCCCN1C(=O)CC(NC(=O)OCC2c3ccccc3-c3ccccc32)C/C=C\C1C(C)C (stereo unspecified)	-4	-0.1	5.8%	-6	0	-4.2
O=C(Nc1ccc(Br)cn1)c1ccc([N+](=O)[O-])o1	6	-0.1	0.6%	-6	0	?
CCCCOc1ccc(S(=O)(=O)Nc2ccc(NC(C)=O)cc2)cc1	15	1.7	0.4%[38.3 µM]	3	37	-0.4
COc1ccccc1N1CCN(C(=O)CCCn2c(=S)[nH]c3ccccc3c2=O)CC1	0	0.3	2.9%	3	1	6.8
Cc1ccc(S(=O)(=O)N(CCO)Cc2cc3ccc(C)c(C)c3[nH]c2=O)cc1	-2	0.3	-3.4%[38.3 µM]	-13	3	-1.5
COc1ccc2[nH]c3c(=S)nc[nH]c3c2c1	?	0.3	1.0%	-7	?	-5.5

Compound profiles (already shown). Screens in order: Six1-Eya2 inh, TRPML1 ag, PINK1 modulator, D2 potentiator, CtBP-E1A inh, D2 ag
COc1ccc(NC(=O)c2ccc(S(=O)(=O)C(F)F)cc2)c(OC)c1 in the list: 4, 1.6, -0.9%, 7, -11, 0.0
CC(=O)Nc1ccc(OC(=O)c2cccnc2)cc1 in the list: 4, -0.4, -0.3%, 16, 5, -2.4
CC(Cc1ccccc1)C(=O)N(C)Cc1ccccc1 (stereo unspecified) in the list: -5, -0.1, 2.4%, -7, 0, 0.2

The main list resumes with the 7 entries that preceded the break.
SMILES	Six1-Eya2 inh	TRPML1 ag	PINK1 modulator	D2 potentiator	CtBP-E1A inh	D2 ag
CCn1ncc(Br)c1C(=O)Nc1ccc(F)c([N+](=O)[O-])c1	1	-0.7	-0.8%	8	-10	-3.0
CCCCCCN1C(=O)CC(NC(=O)OCC2c3ccccc3-c3ccccc32)C/C=C\C1C(C)C (stereo unspecified)	-4	-0.1	5.8%	-6	0	-4.2
O=C(Nc1ccc(Br)cn1)c1ccc([N+](=O)[O-])o1	6	-0.1	0.6%	-6	0	?
CCCCOc1ccc(S(=O)(=O)Nc2ccc(NC(C)=O)cc2)cc1	15	1.7	0.4%[38.3 µM]	3	37	-0.4
COc1ccccc1N1CCN(C(=O)CCCn2c(=S)[nH]c3ccccc3c2=O)CC1	0	0.3	2.9%	3	1	6.8
Cc1ccc(S(=O)(=O)N(CCO)Cc2cc3ccc(C)c(C)c3[nH]c2=O)cc1	-2	0.3	-3.4%[38.3 µM]	-13	3	-1.5
COc1ccc2[nH]c3c(=S)nc[nH]c3c2c1	?	0.3	1.0%	-7	?	-5.5
CC(=O)NCCc1ccc(S(=O)(=O)N2CCOCC2)cc1	1	-0.9	5.1%	11	0	-1.8
Cc1cc(C)cc(NC(=S)NCCN(C2CCCCC2)C2CCCC2)c1	-12	0.1	13%	-21	/	-25
OCC[C@@H]1C[C@H](O)[C@@H](O)[C@]2(OCc3ccc(CO)cc32)O1	13	0.0	0.8%	-4	0	-6.0
Cn1nc(C(F)(F)F)c(-c2ccc(F)cc2)c1NC(=O)CSCC(=O)O	-11	0.2	0.5%	-3	7	-3.5
CC1(Cc2ccc(F)cc2)C(=O)Nc2c(Cl)cccc21 (stereo unspecified)	-1	-1.1	4.1%	-9	9	-4.8
CN(CC(=O)Nc1ccc(Cl)c(C(F)(F)F)c1)C(=O)c1ccc2c(c1)OCCO2	-8	0.6	-0.3%	-14	6	-3.9
CC(C)c1ccc(NC(=O)CCNC(=O)Cn2ccc3ccccc3c2=O)cc1	5	-0.2	8.1%	0	10	11
O=C(c1cc2ccccc2oc1=O)N(Cc1ccco1)Cc1cccs1	-6	0.8	0.6%[38.3 µM]	-5	-7	-2.1
CCOc1ccccc1NC(=O)c1ccc(Cl)c(NC(=O)CC(c2ccccc2)c2ccccc2)c1	-14	3.2	/	0	-4	-2.6
COc1ccc(CC(=O)OCC(=O)NCCNC(=O)COC(=O)Cc2ccc(OC)cc2)cc1	8	0.5	3.4%	0	0	-0.3
CCCCC1SC(N)=NC1=O (stereo unspecified)	7	0.6	-1.6%	3	-1	-5.4
CCN(CC)Cc1cc2ccccc2c2c1COC2	13	0.1	1.1%	-22	25	-12
NC(=S)Nc1cnc2ccccc2c1	5	-0.7	-2.7%	-21	-1	-1.9
CC1CCN(S(=O)(=O)N2CCC(C(=O)NCCN3CCOCC3)CC2)CC1	4	0.8	1.2%[38.3 µM]	3	8	1.2
O=C(NC1CCCCC1)C1CC(=O)N(CCc2ccccc2)C1 (stereo unspecified)	2	0.6	1.9%[38.3 µM]	-3	1	-0.2
Cc1[nH]n(CCC#N)c(=O)c1CC(=O)N1CCN(c2ccccc2)CC1	9	-0.2	0.9%	-14	16	-1.4
CCOC(=O)c1cccc(NC(=O)CCc2nc(-c3ccccc3F)no2)c1	-4	0.7	1.4%	1	-2	1.2
CC1CCc2nc3ccc(S(=O)(=O)N4CCC(C(=O)NC5CCCC5)CC4)cc3c(C(=O)O)c2C1 (stereo unspecified)	-19	-0.8	0.6%	-1	-1	-1.1
CCCCN(C)/C=N/c1c(C#N)cnn1-c1ccc(C)cc1	13	1.7	3.5%[38.3 µM]	-7	9	-2.0
C=CCNc1nc(C(=O)OCC(=O)c2ccc(OC)cc2OC)cs1	-6	-0.3	2.6%	9	4	-5.4
CC1CC(=O)Nc2ccccc2N1S(=O)(=O)c1cccc(F)c1 (stereo unspecified)	8	0.5	0.6%	0	1	-1.9
COc1ccc(-c2cc(C(=O)NCCc3ccccc3)no2)cc1OC	3	1.5	-2.6%[38.3 µM]	-1	5	-0.3
COc1ccccc1/C=C/C(=O)OCCN1C(=O)c2ccccc2C1=O	-8	0.2	3.5%	3	/	4.1
O=C(O)c1cccc2c1C(=O)c1ccc(N3CCCC3)cc1S2(=O)=O	-11	15	-0.2%	-12	-6	-3.4
CCCCn1nnnc1C1(C)CCC(=O)N1CC1CCCCC1 (stereo unspecified)	4	2.0	0.7%	/	13	/
Cc1ccc(C(=O)Nc2cc(Cl)ccc2-n2cncn2)o1	-2	0.7	-1.3%	10	3	-1.0
CCOC(=O)C1CCN(C(=O)Nc2c(-c3ccccc3)noc2C)CC1	-22	-0.4	0.4%	-7	4	0.8
